Compound activity: PubChem BioAssay, Broad Institute
DUX4 inh = DUX4-mediated transcription inhibition; 293T-iDUX4 ZSCAN4-Gaussia luciferase reporter, 24 h; active compounds read low; activity change, negative = inhibition, % (test concentration not listed); 0.8% of 37,000 active; AID 1224904;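 active = -10% or lower and over 25 points stronger than a control reporter; inconclusive = -10% or lower with a smaller gap; inactive = above -10%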;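 note: 0% = median of neutral control wells and -100% = median of positive control wells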
DUX4 inh difference = also measured in DUX4 inh; calls as there; Gaussia minus Italica difference, %; measured here: selective DUX4 reporter inhibition;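 worked out from the two reporters; negative = selective loss of the DUX4 reporter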
DUX4 inh control = recorded beside DUX4 inh, whose call it bears; activity change, negative = inhibition, %; measured here: Italica tet-on control reporter;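 0 = neutral control and -100 = positive control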
* = called active by the depositor; u = inconclusive; x = not tested or not shown; & = joins results of further samples. Not all compounds are listed, so the mix of outcomes need not match the whole.

(1) O=C(C1CC1)N1CC2(C1)[C@H](c1ccccc1)[C@@H](CO)N2C(=O)c1cccnc1
(2) CC(C)N(C[C@H]1[C@@H](c2ccccc2)[C@@H](CO)N1CC1CC1)C(=O)C1CCC1
(3) O=C(C[C@@H]1C[C@H]2c3cc(NC(=O)NC4CCCCC4)ccc3O[C@H]2[C@@H](CO)O1)NCCc1ccccc1
(4) O=C(C[C@H]1CC[C@@H]2[C@H](COC[C@@H](O)CN2Cc2nccs2)O1)NCc1ccc(Cl)cc1
(5) CC(C)COC(=O)N(C)C[C@H]1OCc2ccccc2-c2c(n(C)c3ccccc23)C(=O)N([C@H](C)CO)C[C@H]1C
assay / entry,1,2,3,4,5
DUX4 inh,0,-3,2,1,1
DUX4 inh difference,2,-3,4,1,4
DUX4 inh control,-1.9,0.6,-1.4,0.6,-3.3

(6) O=C1N[C@@H](c2ccccc2)COCc2cn(nn2)CC[C@@H]1Cc1ccc(-c2ccccc2)cc1
(7) CCCNC(=O)Nc1ccc2c(c1)C(=O)N(C)C[C@H](OC)[C@H](C)CN(C(=O)C1CCCCC1)[C@@H](C)CO2
(8) CN1C(=O)c2cc(NC(=O)c3ccc(F)c(F)c3)ccc2OC[C@H]2O[C@H](CC(=O)N[C@@H]3CCN(Cc4ccccc4)C3)CC[C@@H]21
(9) O=S(=O)(NC[C@@H]1[C@@H](c2ccccc2)[C@H](CO)N1CC1CC1)c1ccccc1
(10) O=C(c1cccnc1)N1CCCCN2[C@@H](CO)[C@H](c3ccc(C#Cc4cccnc4)cc3)[C@@H]2C1
assay / entry,6,7,8,9,10
DUX4 inh,0,0,-2,-2,12
DUX4 inh difference,-7,0,-2,0,4
DUX4 inh control,6.6,0.5,-0.6,-1.4,8.5

(11) Cc1ccccc1S(=O)(=O)N1CC(=O)N2[C@H](CO)[C@@H](c3ccc(C#CC4CC4)cc3)[C@@H]2C1
(12) O=C(O)C[C@@H]1C[C@@H]2c3cc(NC(=O)CC4CC4)ccc3O[C@@H]2[C@H](CO)O1
(13) C[C@@H]1CN([C@@H](C)CO)C(=O)c2cc(NC(=O)CCC(F)(F)F)ccc2O[C@@H](C)CCCCO[C@@H]1CN(C)C(=O)NC1CCCCC1
(14) CCN1[C@@H]2Cn3c(ccc(-c4ccc(F)cc4)c3=O)[C@H]1[C@@H](C(=O)Nc1ccccc1)[C@@H]2CO
(15) COCC(=O)N1[C@@H](CO)[C@@H](c2ccccc2)C12CN(C(=O)c1ccccc1)C2
assay / entry,11,12,13,14,15
DUX4 inh,-2,9,4,3,6
DUX4 inh difference,-7,3,7,3,-2
DUX4 inh control,5.2,6.1,-2.4,0.0,7.7

(16) COCC(=O)N1CC[C@H]2[C@H](CO)Nc3ccc(C#Cc4ccc(F)cc4)cc3[C@H]21
(17) CN(C)CC#Cc1ccc([C@H]2[C@@H](CO)N3C(=O)CN(C(=O)c4ccccc4)C[C@H]23)cc1
(18) CO[C@@H]1CN(C)C(=O)c2ccc(NC(=O)c3nc4ccccc4s3)cc2OC[C@H](C)N(Cc2cccnc2)C[C@H]1C
(19) COc1ccc(CN(C)C[C@H]2OCCCC[C@H](C)Oc3ccc(NC(=O)C4CCCCC4)cc3C(=O)N([C@H](C)CO)C[C@H]2C)cc1
(20) CCNC(=O)Nc1ccc2c(c1)C(=O)N(C)[C@H]1CC[C@H](CC(=O)Nc3ccccc3OC)O[C@@H]1CO2
assay / entry,16,17,18,19,20
DUX4 inh,6,13,u,2,2
DUX4 inh difference,4,3,x,3,6
DUX4 inh control,1.7,10,x,-0.9,-4.6

Looked up by compound from the entries so far (2):
(19) COc1ccc(CN(C)C[C@H]2OCCCC[C@H](C)Oc3ccc(NC(=O)C4CCCCC4)cc3C(=O)N([C@H](C)CO)C[C@H]2C)cc1
(20) CCNC(=O)Nc1ccc2c(c1)C(=O)N(C)[C@H]1CC[C@H](CC(=O)Nc3ccccc3OC)O[C@@H]1CO2
assay / entry,19,20
DUX4 inh,2,2
DUX4 inh difference,3,6
DUX4 inh control,-0.9,-4.6

Additional results follow.
(21) O=C(c1ccc2c(c1)OCO2)N1CC2(C1)[C@@H](c1ccccc1)[C@H](CO)N2C(=O)C1CCC1
(22) C[C@@H]1CN([C@H](C)CO)C(=O)Cc2cc(N(C)C)ccc2O[C@H]1CN(C)C(=O)NC1CCCCC1
(23) COC(=O)C[C@H]1C[C@@H]2c3cc(NC(=O)CC4CC4)ccc3O[C@@H]2[C@@H](CO)O1
(24) CC(C)(C)[S@@](=O)N1Cc2cc(C(=O)N3CCOCC3)nc(-c3cccc(Br)c3)c2[C@H]1CCO
(25) CO[C@@H]1CN(C)C(=O)c2cc(NC(=O)Nc3ccc(Cl)cc3)ccc2OC[C@H](C)N(C)C[C@@H]1C
assay / entry,21,22,23,24,25
DUX4 inh,2,6,5,4,-6
DUX4 inh difference,0,1,0,0,4
DUX4 inh control,2.7,4.7,5.1,3.2,-9.6

(26) CCN1[C@@H]2c3ccc(C4=CCCC4)c(=O)n3C[C@@H]2[C@@H](CO)[C@@H]1C(=O)NCc1ccccn1
(27) N#C[C@@H]1[C@@H](c2ccccc2-c2ccccc2)[C@@H](CO)N1C(=O)NC1CCCC1
(28) O=C(C[C@@H]1CC[C@H]2[C@@H](COC[C@@H](O)CN2S(=O)(=O)c2ccc(F)cc2)O1)N[C@@H]1CCN(Cc2ccccc2)C1
(29) CN(C)CC(=O)N1[C@@H](CO)[C@@H]2c3ccccc3N(C(=O)Cc3ccccc3)C[C@@H]21
(30) CN1C(=O)c2cc(NC(=O)c3ccccc3Cl)ccc2OC[C@H]2O[C@@H](CC(=O)NCC(F)(F)F)CC[C@H]21
assay / entry,26,27,28,29,30
DUX4 inh,7,u,1,0,3
DUX4 inh difference,4,x,0,0,-1
DUX4 inh control,3.0,x,1.0,0.1,3.2

(31) COc1ccc2c3c([nH]c2c1)[C@@H](CO)N(Cc1ccncc1)CC31CN(C(=O)CN(C)C)C1
(32) N#C[C@@H]1[C@H](c2ccccc2-c2cccc(F)c2)[C@H](CO)N1C(=O)C1CCC1
(33) C[C@@H]1CN([C@H](C)CO)C(=O)c2cc(NS(=O)(=O)c3ccc(Cl)cc3)ccc2O[C@@H](C)CCCCO[C@H]1CN(C)C(=O)Nc1ccc(C(F)(F)F)cc1
(34) C[C@H]1CN([C@@H](C)CO)S(=O)(=O)c2ccc(-c3ccccc3F)cc2O[C@H]1CN(C)C(=O)C1CC1
(35) O=C(C[C@H]1CC[C@@H]2[C@H](COC[C@H](O)CN2S(=O)(=O)c2ccccc2F)O1)NCc1ccccc1Cl
assay / entry,31,32,33,34,35
DUX4 inh,12,-3,-3,-3,0
DUX4 inh difference,3,-10,-5,1,-1
DUX4 inh control,9.2,7.2,1.8,-3.5,1.4

(36) CN1C(=O)c2cc(NC(=O)Nc3ccccc3Cl)ccc2OC[C@H]2O[C@H](CC(=O)O)CC[C@@H]21
(37) C[C@@H]1CN([C@H](C)CO)C(=O)c2cc(NC(=O)CCC(F)(F)F)ccc2O[C@@H](C)CCCCO[C@@H]1CN(C)C(=O)c1ccncc1
(38) N#C[C@H]1[C@@H](c2ccccc2)[C@@H](CO)N1S(=O)(=O)c1ccc(-c2ccccc2)cc1
(39) Cc1cccc(S(=O)(=O)N[C@@H]2CC[C@H](CCNS(=O)(=O)c3ccccc3F)O[C@@H]2CO)c1
(40) CCCNC(=O)N1CC2(C1)CN(C(=O)Nc1ccc(F)cc1)[C@@H](CO)c1[nH]c3cc(OC)ccc3c12
assay / entry,36,37,38,39,40
DUX4 inh,1,-3,0,-1,4
DUX4 inh difference,0,-5,-2,-3,7
DUX4 inh control,1.4,1.6,1.8,2.6,-2.3

(41) Cc1ccc(-c2ccc([C@H]3[C@H](CO)N4CCCCN(Cc5cncnc5)C[C@@H]34)cc2)cc1
(42) C[C@H]1CCCCO[C@H](CN(C)C(=O)NC2CCCCC2)[C@@H](C)CN([C@@H](C)CO)C(=O)c2cc(N(C)C)ccc2O1
(43) C[C@@H]1CN([C@@H](C)CO)S(=O)(=O)c2ccc(C#Cc3ccccc3)cc2O[C@H]1CN(C)C
(44) CO[C@@H]1CN(C)C(=O)c2cc(NS(C)(=O)=O)ccc2OC[C@@H](C)N(Cc2nccs2)C[C@@H]1C
(45) O=C(c1ccc2c(c1)OCO2)N1CC(=O)N2[C@@H](CO)[C@H](c3ccc(C#CCC4CCCC4)cc3)[C@@H]2C1
assay / entry,41,42,43,44,45
DUX4 inh,3,5,2,-5,u
DUX4 inh difference,-2,6,0,-8,x
DUX4 inh control,5.1,-0.9,1.8,2.9,x

(46) CCCC#Cc1ccc([C@@H]2[C@@H](CO)N3C(=O)CN(C(=O)CN4CCOCC4)C[C@H]23)cc1
(47) CCC(=O)Nc1ccc2c(c1)C(=O)N(C)C[C@H](OC)[C@H](C)CN(C(=O)c1ccc(F)cc1)[C@H](C)CO2
(48) OC[C@@H]1[C@H](c2ccc(-c3ccc(F)cc3)cc2)[C@H]2CN(Cc3cccnc3)CCCCN12
(49) Cc1ccc(S(=O)(=O)N2[C@@H]3CNC[C@H]2C3c2ccc(-c3cccc(F)c3)cc2)cc1 (stereo partly specified)
(50) O=C(c1cccc(F)c1)N1C[C@@H]2[C@H](c3ccccc31)[C@H](CO)N2C(=O)c1ccc(F)cc1
assay / entry,46,47,48,49,50
DUX4 inh,9,0,5,13&8,2
DUX4 inh difference,-3,-1,-8,10&2,5
DUX4 inh control,13,0.8,13,2.6&6.4,-2.6

(51) CNC[C@H]1Oc2ccc(NC(=O)Nc3ccc(C(F)(F)F)cc3)cc2CC(=O)N([C@H](C)CO)C[C@H]1C
(52) CO[C@@H]1CN(C)C(=O)c2cc(NC(=O)NC(C)C)ccc2OC[C@@H](C)N(CCC(F)(F)F)C[C@@H]1C
(53) C[C@@H]1CN([C@H](C)CO)C(=O)c2c(c3ccccc3n2C)-c2ccccc2CO[C@@H]1CN(C)C(=O)Nc1ccc2c(c1)OCO2
(54) COC(=O)c1ccc(CN2CC(=O)N3[C@@H](CO)[C@H](c4ccc(-c5ccccc5F)cc4)[C@@H]3C2)cc1
(55) CC(=O)N1CCCCN2[C@H](CO)[C@H](c3ccc(Br)cc3)[C@H]2C1
assay / entry,51,52,53,54,55
DUX4 inh,-1,-4,0,4,8
DUX4 inh difference,2,1,8,1,8
DUX4 inh control,-2.5,-4.2,-7.7,3.7,-0.8

Grouped by structure, the entries above with a Cl atom (6)
(4) O=C(C[C@H]1CC[C@@H]2[C@H](COC[C@@H](O)CN2Cc2nccs2)O1)NCc1ccc(Cl)cc1
(25) CO[C@@H]1CN(C)C(=O)c2cc(NC(=O)Nc3ccc(Cl)cc3)ccc2OC[C@H](C)N(C)C[C@@H]1C
(30) CN1C(=O)c2cc(NC(=O)c3ccccc3Cl)ccc2OC[C@H]2O[C@@H](CC(=O)NCC(F)(F)F)CC[C@H]21
(33) C[C@@H]1CN([C@H](C)CO)C(=O)c2cc(NS(=O)(=O)c3ccc(Cl)cc3)ccc2O[C@@H](C)CCCCO[C@H]1CN(C)C(=O)Nc1ccc(C(F)(F)F)cc1
(35) O=C(C[C@H]1CC[C@@H]2[C@H](COC[C@H](O)CN2S(=O)(=O)c2ccccc2F)O1)NCc1ccccc1Cl
(36) CN1C(=O)c2cc(NC(=O)Nc3ccccc3Cl)ccc2OC[C@H]2O[C@H](CC(=O)O)CC[C@@H]21
assay / entry,4,25,30,33,35,36
DUX4 inh,1,-6,3,-3,0,1
DUX4 inh difference,1,4,-1,-5,-1,0
DUX4 inh control,0.6,-9.6,3.2,1.8,1.4,1.4

Compound profiles, from the list above. Values in the order: DUX4 inh	DUX4 inh difference	DUX4 inh control
`CN1C(=O)c2cc(NC(=O)c3ccccc3Cl)ccc2OC[C@H]2O[C@@H](CC(=O)NCC(F)(F)F)CC[C@H]21` is listed with 3	-1	3.2
`O=C(C[C@@H]1CC[C@H]2[C@@H](COC[C@@H](O)CN2S(=O)(=O)c2ccc(F)cc2)O1)N[C@@H]1CCN(Cc2ccccc2)C1` is listed with 1	0	1.0

The list goes on.
(56) CC(C)C(=O)Nc1ccc2c(c1)C(=O)N(C)[C@H]1CC[C@@H](CC(=O)O)O[C@@H]1CO2
(57) CCCC(=O)N1CC2(CN(C(=O)C3CC3)C2)c2c(n(C)c3cc(OC)ccc23)[C@H]1CO
(58) COCC(=O)Nc1ccc2c(c1)[C@H]1C[C@H](CC(=O)N3CCOCC3)O[C@H](CO)[C@H]1O2
(59) O=C(c1ccncc1)N1C[C@H]2[C@@H](c3ccccc31)[C@@H](CO)N2Cc1ccccc1F
(60) CC(C)NC(=O)Nc1ccc2c(c1)C(=O)N([C@H](C)CO)C[C@H](C)[C@@H](CN(C)C(=O)Nc1ccc(F)cc1)O2
(61) CN(C)CCCNC(=O)C[C@@H]1CC[C@@H](NS(=O)(=O)c2ccccc2)[C@@H](CO)O1
(62) CS(=O)(=O)N1CC2(C1)[C@@H](c1ccccc1)[C@@H](CO)N2CCC(F)(F)F
(63) CCCC(=O)Nc1ccc2c(c1)C(=O)N(C)C[C@@H](OC)[C@@H](C)CN(C)[C@H](C)CO2
assay / entry,56,57,58,59,60,61,62,63
DUX4 inh,1,9,7,5,0,-2,-2,2
DUX4 inh difference,2,13,-2,5,4,-1,-2,6
DUX4 inh control,-0.3,-3.8,9.6,-0.3,-4.9,-0.5,0.3,-4.4
